Vaccinia Venus = inhibitors of vaccinia virus (Venus reporter). Vaccinia virus Venus reporter expression, fluorescence. Potency, µM (highest dose often 36.5 µM), inactives show top-dose activity change, negative = inhibition, hits mostly inhibitors. 330,000 tested, 0.46% active; active means well fitted inhibition curve with a large enough effect; inconclusive means small, poorly fitted or top-dose-only effect; inactive means no such curve, though single readings can be large or run the other way; tested in A549 cells; also: nearly all actives have a fitted effect of over 30% in size; inactives centre near -10
Vaccinia mCherry = inhibitors of vaccinia virus infection (mCherry reporter signal) | Potency, µM (doses to about 36.5 µM), without a hit: at the highest dose activity change, negative = inhibition, most hits filed as inhibitors | AID 720579 | Vaccinia virus mCherry reporter infection, fluorescence; about a quarter of the inactives have no number | 310,000 tested, 0.63% active; active = well fitted inhibition curve with a large enough effect; inconclusive = small, poorly fitted or top-dose-only effect; inactive = no such curve, though single readings can be large or run the other way; tested in A549 cells; also: nearly all actives have a fitted effect of over 35% in size; inactives centre near -10
* marks the source's active call; other numbers are inactive results; i = inactive; ? = inconclusive; / = not tested or not shown; & = joins results of further samples; [ ] = dose if it differs, or a comment. % is scaled to controls: 0 for no effect and ±100 for the full control effect; potency is read from the fitted curve at half-maximal effect.

The line under a structure holds: Vaccinia Venus | Vaccinia mCherry
> CC(C)c1ccc(CC(=O)N2CCC2(C)C(=O)Nc2ccc3c(c2)OCCO3)cc1 (stereo unspecified)
    -8% | -9%
> CCCOc1ccc(-c2c(C(=O)N/N=C(\C)COc3ccccc3)nnn2-c2nonc2N)cc1
    -8% | ?
> CC1(C(=O)O)CCC(C(=O)NC2CCCCC2)C1(C)C (stereo unspecified)
    7% | 1%
> Cc1ccc(C)c2sc(NC(=O)C3CC3)nc12
    -10% | ?
> O=C1C=C(N2CCOCC2)CO1
    -13% | -10%
> C=CCC[C@@H](Cc1ccc(F)cc1)C(=O)OC[C@H]1CCCN1C(=O)[C@@H](CC=C)CC(=O)N[C@H](CO)Cc1ccccc1
    -18% | 0%
> COc1cc(Cl)c(C)cc1NC(=O)CN1c2ccccc2S(=O)(=O)c2ccccc21
    0% | 8%
> CCC(Sc1nnc(-c2ccc(OC)cc2)c(-c2ccc(OC)cc2)n1)C(=O)Nc1cccc(OC)c1 (stereo unspecified)
    1% | -11%
> COC(=O)CCN1CCN(S(=O)(=O)c2ccccc2Br)CC1
    0% | i
> Cc1nn2c(Nc3ccccc3)c3c(nc2c1-c1ccccc1)CCC3
    8% | -5%
> O=C(COC(=O)CNC(=O)c1sc2ccccc2c1Cl)NC1CCS(=O)(=O)C1 (stereo unspecified)
    -5% | -13%
> Cc1ccc(S(=O)(=O)N2CCOCC2)cc1NC(=O)c1cc(-c2ccccn2)nc2ccccc12
    ? | 11µM*
> COc1ccc(NC(=O)C23CC4CC(C2)CC(n2cnc(Br)n2)(C4)C3)cc1Cl
    -23% | -16%
> CCOC(=O)N1CCc2c(sc3c2c(=O)n(Cc2ccccc2)c(=O)n3Cc2cccc(C)c2)C1
    -18%&-26% | ?
> C[C@H]1CN([C@@H](C)CO)C(=O)c2cc(/C=C/c3ccccc3)cnc2O[C@H]1CN(C)C(=O)c1cccc(F)c1
    -25% | -5%
> CCc1ccccc1NC(=O)c1cc(-c2cccs2)on1
    9% | -13%
> CC(=O)Nc1cccc(C(=O)NCc2ccc3c(c2)CCN3C(=O)c2ccc(F)cc2)c1
    -6% | -19%
> CC(=O)N1CCc2cc(NC(=O)C3(C)CCN3CCc3ccccc3)ccc21 (stereo unspecified)
    3% | 15%
> COC(=O)CSc1snnc1-c1ccc(F)cc1
    -9% | /
> Cc1ccc(Nc2nc(N/N=C\c3ccc4c(c3)OCO4)nc(N3CCOCC3)n2)cc1
    ? | ?
> Nc1nc(-c2ccc(Cl)cc2)nn1C(=O)c1ccco1
    4% | -13%
> O=C(NC1CC(=O)N(c2cccc(F)c2)C1)C(c1ccccc1)c1ccccc1 (stereo unspecified)
    -9% | -4%
> CC(OC(=O)C1CCCC1)C(=O)Nc1ccc(C(N)=O)cc1 (stereo unspecified)
    -3% | i
> COc1ccc(CNS(=O)(=O)c2ccc(-c3cnc(C4CC4)o3)cc2)cc1
    -2% | -13%
> COc1cc(/C=N/Nc2ccc(F)cc2F)cc(OC)c1O
    -9% | -21%
> CCc1nc2c(OCc3cccc(Cl)c3)cccn2c1N(C)C(C)=O
    -12% | i
> C[C@H](CO)N1C[C@H](C)[C@@H](CN(C)S(=O)(=O)c2ccc(F)cc2)OCc2cnnn2CCCC1=O
    -3% | i
> Cc1nn(C)c(C)c1CN(C(=O)C1CCC(=O)N(C2CCCCCC2)C1)C(C)C (stereo unspecified)
    -14% | -3%
> CC(=O)NCCn1c(SCc2cccc([N+](=O)[O-])c2)nc2ccccc2c1=O
    -1% | -4%
> COC(=O)/C(C#N)=C/c1occc1C
    0% | -4%
> CC(=O)c1cc(C)ccc1OC(=O)c1cccnc1
    ? | /
> O=C(COc1ccccc1[N+](=O)[O-])N1CCN(CCc2ccncc2)CC1
    -12% | -4%
> CC(C)n1c(C(F)(F)F)nc2cc(C(=O)N3CCC(O)CC3)ccc21
    0% | i
> COc1ccc(-c2nn(CCC#N)cc2C(=O)Nc2ccccc2Br)cc1
    -9% | -17%
> C[C@H](CO)N1C[C@H](C)[C@@H](CN(C)Cc2cccnc2)Oc2cc(-c3cccnc3)ccc2S1(=O)=O
    -4% | -11%
> CCCCN1C(=O)c2[nH]nc(-c3ccccc3O)c2C1c1ccc(C(C)(C)C)cc1 (stereo unspecified)
    ? | -22%
> CCCCNC(=O)COc1ccccc1C(=O)c1cc(C#N)c(=O)n(CCOC)c1
    -9% | 0%
> O=C(Cn1nc(C(F)(F)F)c2c1CCC2)NCc1ccc(Cl)cc1
    -11% | /
> CCCCNC(=O)c1cc2ccccc2s1
    -5% | -6%
> O=C1NC[C@H](Cc2ccc(O)cc2)N(C[C@@H]2CCCN2C[C@H](Cc2ccccc2)N2C[C@H](Cc3ccccc3)N(CCc3ccccc3)C(=O)C2=O)C1=O
    -5% | -3%
> O=C(CCN1CCN(c2ccccc2F)CC1)Nc1ccc2c(c1)OCO2
    -10% | -8%
> CCCc1cc(N2CCN(c3ccc(OC)cc3)CC2)n2cnnc2n1
    ? | ?
> Cc1cc(-c2ccc(S(=O)(=O)N3CCN(c4ccc(Cl)cc4)CC3)s2)on1
    -20% | -3%
> O=C(NC1CCN(C(=O)Nc2ccccc2Cl)CC1)c1ccco1
    -10% | -3%
> COc1ccc(N=c2cc(-c3ccc(O)cc3)oc3ccccc23)cc1
    -5% | ?
> COc1ccc(-c2cnc(SCC(=O)Nc3ccc4c(c3)OCO4)n2Cc2ccco2)cc1
    -14% | -24%
> CCCC[C@@H]1CCCO[C@@](C(=O)NCc2ccccn2)(C(F)(F)F)C1
    ? | -8%
> CC(c1ccccc1)N1C(=O)CC(Sc2ncccc2C(=O)O)C1=O (stereo unspecified)
    -11% | -22%
> c1cncc(-c2nc(NCc3cccs3)c3ccccc3n2)c1
    -14% | -10%
> O=C(CSCc1ccccc1)Nc1ccccc1
    -11% | i

(listing goes on)
The line under a structure holds: Vaccinia Venus | Vaccinia mCherry
> Cc1ccc2nc(C)cc(Nc3ccc([N+](=O)[O-])cc3)c2c1
    -19% | -23%
> O=C1CCc2cc(S(=O)(=O)NC(C(=O)Nc3cccc(F)c3)c3ccccc3)ccc2N1 (stereo unspecified)
    11% | -7%
> Cn1c(=O)oc2cc(S(=O)(=O)N3CCCC(C(=O)NCCN4CCOCC4)C3)ccc21 (stereo unspecified)
    -18% | -17%
> Cc1cccc(-n2c(=O)c3ccccc3n(Cc3ccccc3C#N)c2=O)c1
    -3% | 1%
> O=C(COC(=O)c1ccc(NS(=O)(=O)c2cccs2)cc1)NCC1CCCO1 (stereo unspecified)
    -2% | i
> C/C(N)=C(/C#N)C(=O)CSc1nncn1-c1ccccc1
    -4% | -10%
> CCc1cc(Cn2nc(-c3ccccc3)cc2C(=O)NCCOC)on1
    -14% | i
> O=C(NNc1nc2c(F)cc(F)cc2s1)c1ccccc1
    -8% | -19%
> Cc1cc(S(=O)(=O)c2cc3ccc(O)c(C)c3oc2=O)ccc1F
    -10% | -14%
> CCN(C(=O)CN1C(=O)/C(=C/c2ccccc2)SC1=S)C1CCS(=O)(=O)C1 (stereo unspecified)
    -5% | -20%
> COCCN(C(=O)COC(=O)CNC(=O)c1cccs1)c1c(N)n(Cc2ccccc2)c(=O)[nH]c1=O
    -6% | -11%
> O=C(CSc1oc(-c2ccco2)nc1S(=O)(=O)c1ccc(F)cc1)NCC1CCCO1 (stereo unspecified)
    -14% | i
> Cc1ccc(Nc2sc(C(=O)c3ccccc3)c(N)c2C(=O)Nc2ccc(Cl)cc2)cc1
    ? | ?
> Cc1cc(C(=O)N=Nc2c(O)n(C)c3ccccc23)c(C)o1
    -2% | i
> CCc1nnc(NC(=O)c2nc(SCc3ccccc3F)ncc2Cl)s1
    -8% | -5%
> COc1ccc(CNC(=O)CCc2c(C)nc3c(c(C)nn3-c3ccccc3)c2C)cc1
    -10% | -9%
> CCOC(=O)c1ccc2ncc(-c3ccccc3)nc2c1
    -11% | -3%
> Cc1nc2cc(NS(=O)(=O)c3ccc(Br)cc3)ccc2n1C
    -10% | -9%
> COc1ccc(NC(=O)[C@H]2O[C@@H]3OC(C)(C)O[C@@H]3[C@H]3OC(C)(C)O[C@H]32)c(OC)c1
    10% | -1%
> CCC(c1nnc(SCC(=O)NC23CC4CC(CC(C4)C2)C3)o1)N(C)C (stereo unspecified)
    -13% | /
> C=CCc1ccccc1OCC(=O)NNC(=S)NCc1ccccc1
    -15% | i
> CN(C(=O)c1ccccc1C(=O)OCC(=O)Nc1ccc(S(N)(=O)=O)cc1)c1ccccc1
    1% | -9%
> Cc1ccc(S(=O)(=O)N(CC(=O)N2CCc3ccccc3C2)c2ccc(C)c(C)c2)cc1
    -6% | i
> OC(c1ccc(-c2ccccc2)cc1)c1ncc(-c2ccccc2Cl)[nH]1 (stereo unspecified)
    -6% | -7%
> Cc1cc(C)cc(NC(=O)CNS(=O)(=O)c2ccc3nc(C)sc3c2)c1
    0% | -4%
> NC(N)=Nc1nc2ccc([N+](=O)[O-])cc2[nH]1
    -6% | ?
> Cc1ccc(/C=C(\C#N)C(=O)Nc2c(C)cccc2C)s1
    -11% | -5%
> O=C(CSc1nnc(-c2ccco2)o1)NC1CCCCCC1
    -7% | -19%[1.46 µM]
> CC(=O)N1CCN=C1SCc1cccc(C(F)(F)F)c1
    1% | -6%
> Cc1nn2c(=O)cc(COC(=O)CNC(=O)c3ccc(F)cc3)nc2s1
    -13% | -9%
> O/N=C1/CCSc2ccccc21
    -21% | /
> CC(=O)COc1ncnc2c(Cl)cc(Cl)cc12
    1% | -5%
> CCOc1ccccc1NC(=O)C(OC(=O)c1ccc(N(C)C)cc1)c1ccccc1 (stereo unspecified)
    -6% | i
> CCC1CCCCN1C(=O)c1c[nH]c2ccc(S(=O)(=O)N(C)c3ccc(Cl)cc3)cc2c1=O (stereo unspecified)
    -6% | -14%
> CCc1nc(C)cc2c1sc1ccccc12
    -1% | -9%
> CN(Cc1ccccc1)C(=O)C1CCC(CNS(=O)(=O)c2ccc3c(c2)CCCC(=O)N3)CC1 (stereo unspecified)
    -18% | -26%
> COC(=O)c1c(OCCN2CCCCC2)cc(=O)n2c1CCN(Cc1cccc3nccnc13)CC2
    -15% | i
> Clc1ccc2c(c1)Nc1ccccc1CC2
    -12% | -20%
> CC(NC(=O)C1CCC(CNS(=O)(=O)c2ccccc2)CC1)c1ccccc1 (stereo unspecified)
    -11% | -17%
> Cc1cc(C)c2nc(Cl)c(Cl)nc2c1
    -3% | i
> CCOc1ccccc1NS(=O)(=O)c1c(C)nc2sccn2c1=O
    -15% | -22%
> CCOC(=O)[C@]12CCCC=C1N(Cc1ccc3c(c1)OCO3)C(=O)[C@H](CC(=O)NCc1cccc(C(F)(F)F)c1)C2
    ? | ?
> CC1CC(C)CN(c2oc(Cc3ccccc3)nc2C#N)C1 (stereo unspecified)
    -19% | -12%
> Cc1ccc(S(=O)(=O)Nc2ccc3c(c2)n(C)c(=O)n3C)cc1
    -14% | -17%
> COC1C(O)C(C)OC(OC2CCC3(C)C(CCC4C3C(O)CC3(C)C(C5=CC(=O)OC5)CCC43O)C2)C1O (stereo unspecified)
    0.35µM* | 0.25µM*
> CC(C)(C)OC(=O)CNC(=O)c1[nH]cnc1C(=O)NC1CCNCC1
    -1% | i
> O=C(Nc1ccccc1)OCc1cnc(Cl)s1
    -18% | i
> C=CCn1c(SCC(=O)NCC)nc2sc3c(c2c1=O)CCC3
    -7% | -9%
> Cc1ccccc1N1CCN(S(=O)(=O)c2nnc(NC(=O)c3ccccc3)s2)CC1
    -11% | -10%
> C=CCn1c(Cn2nnc3ccccc32)nnc1SCC(=O)N/N=C/c1cc(Br)cc(OC)c1O
    14% | /
> COC(=O)c1c(NC(=O)COc2ccc(Cl)cc2Cl)sc2c1CC(C)(C)NC2(C)C
    -7% | -11%

Compounds listed so far with two or more sulfur atoms:
The line under a structure holds: Vaccinia Venus | Vaccinia mCherry
> O=C(COC(=O)CNC(=O)c1sc2ccccc2c1Cl)NC1CCS(=O)(=O)C1 (stereo unspecified)
    -5% | -13%
> COC(=O)CSc1snnc1-c1ccc(F)cc1
    -9% | /
> Cc1cc(-c2ccc(S(=O)(=O)N3CCN(c4ccc(Cl)cc4)CC3)s2)on1
    -20% | -3%
> O=C(COC(=O)c1ccc(NS(=O)(=O)c2cccs2)cc1)NCC1CCCO1 (stereo unspecified)
    -2% | i
> CCN(C(=O)CN1C(=O)/C(=C/c2ccccc2)SC1=S)C1CCS(=O)(=O)C1 (stereo unspecified)
    -5% | -20%
> O=C(CSc1oc(-c2ccco2)nc1S(=O)(=O)c1ccc(F)cc1)NCC1CCCO1 (stereo unspecified)
    -14% | i
> CCc1nnc(NC(=O)c2nc(SCc3ccccc3F)ncc2Cl)s1
    -8% | -5%
> Cc1cc(C)cc(NC(=O)CNS(=O)(=O)c2ccc3nc(C)sc3c2)c1
    0% | -4%
> CCOc1ccccc1NS(=O)(=O)c1c(C)nc2sccn2c1=O
    -15% | -22%
> C=CCn1c(SCC(=O)NCC)nc2sc3c(c2c1=O)CCC3
    -7% | -9%
> Cc1ccccc1N1CCN(S(=O)(=O)c2nnc(NC(=O)c3ccccc3)s2)CC1
    -11% | -10%

Compounds were not picked by outcome; about 0.82% have a hit in one of these screens.
